# BJeLR viability – kills HRASV12-expressing BJeLR cells; BJeLR (HRASV12) viability, CellTiter-Glo ATP luminescence, 48 h; reference of the scale not given here; inhibition, % (test concentration not listed); 300,000 tested, 0.17% active; AID 1554;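 active = replicate mean above 50%; inconclusive = above 50% but judged a plate artefact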;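 also: 50 nL library stock added to about 25 µL; numbers are from one replicate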
# Mtb hypoxia inh – inhibitors of hypoxia-regulated fluorescent reporter in Mycobacterium tuberculosis; fluorescence inhibition, % (concentration not given with the values); AID 1159583; M. tuberculosis hypoxia-regulated fluorescent reporter, fluorescence; 300,000 tested, 0.1% active;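 active = 35 to 45% if threefold the growth effect, above 45% if 1.5-fold the growth effect; inactive = the rest, general growth blockers included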;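 also: wells of about 50 µL received 100 nL stock; 0% = vehicle wells and 100% = reference inhibitor wells; whole bacteria with a GFP reporter of the hypoxia response; strong numbers were not always called active; many hits fall short of the cut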
# Bead autofluor – flagged as autofluorescent in microsphere protease counterscreen; compound autofluorescence counterscreen, microsphere flow cytometry; stronger effect = higher value; 360,000 tested, 3.1% active; fluorescence intensity (test concentration not listed); AID 624483;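 active = at least 3 SD above the mean of all compounds, about 16000 in these data; inconclusive = too few beads counted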;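 also: 100 nL of 1 mM stock went into each well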
# Sa RN4220 lethal – S. aureus RN4220 growth inhibition. AID 1259311. inhibition, % (no concentration beside the values). 330,000 tested, 0.33% active. OD600, 16 h;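 active = z-score of -3 or lower and OD600 up to 0.18 on both plates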;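 also: plate controls were untreated cells for no effect and reference antibiotic for full effect; stock transfer was 100 nL into about 80 µL; one replicate is shown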
# ugtP null kill – kills S. aureus RN4220 lacking UgtP; S. aureus RN4220 ugtP deletion, OD600 growth, 16 h; some inactives read as strong as hits; growth inhibition, % (concentration not given with the values); 330,000 tested, 0.54% active; AID 1259309;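 active = z-score under -3 and OD600 up to 0.15 on both plates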;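 also: plate controls were untreated wells for no effect and antibiotic for full effect; wells of about 80 µL received 100 nL stock; the first replicate is given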
# PrP UTR inh – suppresses PrP 5' UTR mRNA reporter expression. cell-based PrP 5' UTR mRNA reporter, plate reader. inhibition, % (test concentration not listed). 340,000 tested, 0.35% active. AID 488862;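 active = every replicate at 50% or more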;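 also: 0 = median of the neutral control wells; tested in H4 reporter cells; numbers are from one replicate; inactives centre near -14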
# Mtb hypoxia inh growth – also measured in Mtb hypoxia inh; calls as there; growth inhibition, %; measured here: M. tuberculosis growth (absorbance);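 0% = vehicle and 100% = reference antibiotic; read after six days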
# * hit, by the source's call; ? = inconclusive; . = no result given.
SMILES,BJeLR viability,Mtb hypoxia inh,Mtb hypoxia inh growth,Bead autofluor,Sa RN4220 lethal,ugtP null kill,PrP UTR inh
COc1ccc(CN2C3CCCC2CC(NC(=O)Nc2ccccc2)C3)cc1 (configuration not stated),-5,-3,-3,?,-0.9,4,-10
COc1ccccc1CCC(=O)N1CCN(S(=O)(=O)c2cc(C(F)(F)F)ccc2Cl)CC1,.,8,0,3981,4.2,0,-6
Cc1cccc(C)c1-n1c(SCC(=O)N2CC(=O)Nc3ccccc32)nc2ccccc2c1=O,2,1,5,2223,1.2,10,-15
CC(C)c1ccccc1NC(=O)CCCC(=O)O,7,10,7,2840,-17,-8,-10
CCCc1cc(=O)oc2c(C)c(OCC(=O)Nc3ccccn3)ccc12,-6,-5,4,4423,1.6,-1,-42
OCC[C@@H]1C[C@@H](O)[C@H](O)[C@@]2(Cc3ccccc3O2)O1,-4,.,.,3573,.,.,22
N=C1S/C(=C\c2ccc(-c3cccc(Cl)c3)o2)C(=O)N1c1nccs1,34,-1,1,9289,11,-11,18
CCOC(=O)COc1c(Cl)cc(/C=C2\N=C(C)OC2=O)cc1OC,-19,15,6,.,3.3,-2,-32
COc1ccc(NS(=O)(=O)c2cccs2)cc1S(=O)(=O)N1CCOCC1,-10,-8,5,5389,2.3,5,-9
Cc1cc(C)cc(OCc2nnc(SCC(=O)OC(C)C)o2)c1,0,-3,8,11046,-1.9,0,-16
COC(CN(C)S(=O)(=O)c1cc2c3c(c1)CCN3C(=O)CC2)OC,12,2,10,5844,-0.3,-3,0
Cc1nc(N)[nH]c(=O)c1Oc1cccc(C(F)(F)F)c1,3,-5,-1,6008,4.0,-1,-31
CCN(CC)S(=O)(=O)c1ccc2c(c1)C(=NO)c1cc(S(=O)(=O)N(CC)CC)ccc1-2,4,-6,6,4263,1.0,0,2
CC(=O)Nc1cccc(C(=O)NN=Cc2c[nH]c3ccccc23)c1,.,7,7,.,-4.3,14,.
O=C(NC1(Cc2ccccc2)CCN(CCc2cccs2)C1=O)c1ccccc1 (configuration not stated),.,6,12,3998,3.4,6,-10
Cc1ccc(OCC(=O)NN=Cc2ccc(C)o2)c([N+](=O)[O-])c1,.,12,1,.,5.1,1,.
CC(C)(C)C1N=C(c2ccc3ccccc3c2)OC1=O (configuration not stated),.,8,-3,3743,12,2,-25
COc1ccc(-n2nc(C(=O)N3CCN(Cc4ccc5c(c4)OCO5)CC3)c3ccccc3c2=O)cc1,-10,.,.,2502,1.0,2,-13
O=C(COc1ccc2ccccc2c1)N1CCN(C(=O)c2cccs2)CC1,0,13,8,2880,-14,-10,-8
Cc1ccc(NS(=O)(=O)c2cc(C(=O)N3CCN(C)CC3)ccc2C)cc1C,5,0,14,2511,5.5,9,-6
COc1ccc(C2C(C(=O)NCCCN3CCOCC3)c3ccccc3C(=O)N2c2ccc(OC)cc2)cc1 (configuration not stated),3,-6,-1,3290,2.1,5,-1
CC(=O)Nc1ccc(-c2cn3c(n2)SCC3)cc1,-2,-7,-9,4127,-3.3,-7,-22
COc1ccc(S(=O)(=O)N2CCC(NC(=O)c3ccccc3)CC2)cc1,6,-3,-8,2834,4.3,15,-37
Cc1nn(-c2ccccc2)c(Cl)c1/C=N\NC(=O)c1cnccn1,-6,.,.,2526,.,.,-26
CCN(CC(=O)NC(C)(C)C)C(=O)COc1c(Cl)cc(Cl)c2ccc(C)nc12,-1,.,.,4411,.,.,-20
O=C(NNc1ncnc2c1cnn2-c1ccccc1)c1ccco1,13,-10,4,4730,2.7,5,-11
S=C(NCCc1c[nH]c2ccccc12)NC1CCCCC1,-5,-3,0,3909,5.5,-6,-39
O=C(/C=C/c1ccccc1Cl)N(Cc1cccs1)C1CCS(=O)(=O)C1 (configuration not stated),4,-3,-4,.,4.7,5,-2
N#C/C(=C/c1ccc(F)cc1)c1nnc(NC(=O)c2ccccc2)s1,7,-1,6,4595,5.0,5,-40
COC(=O)[C@]1(Cc2ccccc2)N[C@H](CN(C)S(=O)(=O)c2ccc(OC(F)(F)F)cc2)[C@@H]2C(=O)N(Cc3ccccc3)C(=O)[C@@H]21,.,-15,2,3889,3.6,-8,-4
CCCNC(=O)CC(NS(=O)(=O)c1ccc(OC)cc1)c1ccco1 (configuration not stated),0,1,-2,4244,8.1,1,-25
CSc1ccccc1C(=O)OCC(=O)Nc1cccnc1Cl,.,5,0,3769,2.8,-1,-29
Nc1ccc(-c2ncc(-c3ccccc3)o2)cc1,-1,13,17,3939,5.9,-1,76*
Cc1onc(-c2ccccc2)c1CNC(=O)Nc1ccccc1,-1,9,6,4318,-2.1,0,-33
O=C(NCC(O)c1ccc([N+](=O)[O-])cc1)Nc1ccccc1 (configuration not stated),-9,1,0,3478,-1.7,-6,-16
CCOc1cc(CN2CCN(S(=O)(=O)Cc3ccccc3)CC2)ccc1OC,-7,1,9,3757,4.1,7,-29
CCOC(=O)c1c(NC(=O)/C=C/c2ccc3c(c2)OCO3)sc(C)c1CC,-4,.,.,2876,.,.,-13
CC(=O)c1ccccn1,-1,.,.,4996,1.7,0,-17
Cc1ccc(C)c(N(CC(=O)NC2CCCC2)C(=O)CCCC(=O)Nc2ccccn2)c1,-2,-2,7,3108,-7.4,-2,-21
COc1cccc(C2=NOC(C(=O)Nc3cc(C)on3)C2)c1 (configuration not stated),-4,5,-3,3334,-0.5,-2,-12
COc1ccc(-c2ccc3nnc(SCC(=O)N4CCCC4)n3n2)cc1,2,14,7,5686,2.1,1,-12
COc1ccc(Br)cc1CN(C)C(=O)c1cnc(C)cn1,1,4,1,4312,2.0,1,-8
CC1CC(=O)c2cnc(Nc3ccccc3)nc2C1 (configuration not stated),6,0,4,22489*,2.9,5,-43
O=C(Cc1sc(-c2ccccc2)nc1-c1ccccc1)Nc1ccccc1,-2,-3,-4,3078,-13,-12,-5
NC(=O)c1ccc(Cl)c2ccccc12,-9,.,.,4223,.,.,-19
COc1ccc(NC(=O)c2cc(S(=O)(=O)N3CCCC3)ccc2C)cn1,.,8,1,2946,-2.0,8,-13
Cc1ccc(C(=O)OCC(=O)N2CCCc3ccccc32)cc1C,.,1,3,4368,7.0,9,-20
CCOC(=O)C1=NN(c2ccccc2)C2(S1)SC(C(C)=O)=C(C)N2c1ccccc1 (configuration not stated),-8,0,-1,4658,-1.3,-4,-11
Cc1ccc(C)c(-c2cc(C(=O)Nc3cccc(C(=O)O)c3)c3ccccc3n2)c1,-3,3,-5,4532,6.4,21,-46
CC1Oc2ccccc2N(CC(=O)NCCN2CCOCC2)C1=O (configuration not stated),7,.,.,6593,.,.,-29
CC(=O)Nc1ccc(-n2cc(-c3ccccc3)[nH]c2=S)cc1,5,4,4,2859,5.7,3,-25
Cc1nn(-c2c(Cl)cc(Cl)cc2Cl)c(=O)c2ccccc12,0,.,.,2671,-1.6,-7,-14
CC(C)(O)CC[C@@H](O)[C@](C)(O)C1CC[C@@]2(O)C3=CC(=O)[C@]4(O)C[C@@H](O)[C@@H](O)C[C@]4(C)C3CC[C@]12C (some centres not stated),.,3,3,3916,-6.7,-3,1
Cc1cccnc1NC(=O)CNC(=O)COc1ccccc1,-6,-1,-2,4623,-0.4,-1,-14
Cc1ccc(-c2c(C(=O)N/N=C/c3cccc(Cl)c3)nnn2-c2nonc2N)cc1,10,.,.,5044,.,.,-25
O=C(NCc1ccccc1Cl)C1CCN(C(=O)c2ccco2)CC1,-1,3,7,.,4.8,2,.
Cc1[nH]c2ccccc2c1C(=O)COC(=O)C1CCC1,2,10,10,6016,-0.4,-1,-12
COc1ccc(CSc2nnc(N)s2)cc1F,-2,-14,1,2626,20,10,-45
COc1ccc(C(=O)NC2CC3CCCC(C2)N3Cc2ccccc2)cc1 (configuration not stated),5,-1,1,4538,2.6,3,-22
Cc1nn(Cc2ccccc2)c(N)c1-c1ccccc1,.,.,.,4194,0.8,5,-9
# Continuation:
SMILES,BJeLR viability,Mtb hypoxia inh,Mtb hypoxia inh growth,Bead autofluor,Sa RN4220 lethal,ugtP null kill,PrP UTR inh
Cc1c(Br)c([N+](=O)[O-])nn1CC(=O)N1CCN(Cc2ccccc2)CC1,3,-8,3,3749,0.1,-3,-20
N#CC1=C(N)N(c2ccccc2)C(=O)C1,-1,.,.,2902,1.7,4,-8
O=C1CCC(C(=O)N2CCC(O)(c3ccccc3)CC2)CN1CCc1ccccc1 (configuration not stated),-5,3,0,5625,-0.3,5,0
O=c1[nH]cnc(O)c1C(c1ccc(F)cc1)c1c(O)nc[nH]c1=O,1,0,3,3385,3.0,8,-20
Cc1occc1-c1nnc(SCC(=O)Nc2ccc(F)cc2)n1Cc1ccccc1,1,2,-3,3700,1.6,2,5
COc1ccc(CCNC(=O)c2cc(S(=O)(=O)N3CCOCC3)ccc2F)cc1,.,-5,7,3919,-1.3,-3,-29
CCN(c1ccccc1)S(=O)(=O)c1cc(NC(=O)C2CC2)ccc1Cl,.,-4,-4,3787,7.2,0,-24
C=CCn1c(O)c(C2=c3ccccc3=NC2=O)sc1=Nc1ccc(O)cc1,0,11,3,4955,-6.6,13,0
Cn1nnc(NC(=O)C(c2ccccc2)c2ccccc2)n1,1,-6,6,14865,-0.9,-6,4
Cc1cc(Cl)ccc1NC(=O)CCC(=O)NN=Cc1cccnc1,.,2,-1,.,1.5,4,.
COc1cc(/C=N/NC(=O)c2cc(-c3ccccc3)nc3ccccc23)ccc1O,9,.,.,3759,.,.,-12
CC(C)(C)NC(=O)NCc1ccco1,0,6,1,5942,2.2,5,-15
COc1cccc(-c2nc(N3CCCCC3C)c3ccccc3n2)c1O (configuration not stated),5,5,12,4384,-2.6,-25,-18
CC(C)(C)Nc1nc(OCC#N)nc(N2CCCCC2)n1,-4,12,5,2587,1.8,-4,0
CC(C)CC(NC(=O)C1CCC(C)CC1)C(=O)NCc1cccnc1 (configuration not stated),-2,11,10,8628,3.2,1,-21
COc1cc2nc(N(CCCN(C)C)C(=O)c3ccc(S(=O)(=O)N4CCc5ccccc5C4)cc3)sc2cc1OC,-4,8,3,6854,5.6,7,-27
COc1ccc(COC(=O)Oc2ccc(CNC(C)=O)cc2OC)c([N+](=O)[O-])c1,-3,1,1,3827,5.9,1,-16
CCCCNC(=O)c1cc2nc3c(c(C(F)(F)F)n2n1)CCc1ccccc1-3,1,19,8,4701,1.3,1,-24
O=C(c1csc2ccccc12)N1CCN(c2ccccn2)CC1,3,11,17,2383,4.2,12,8
COc1ccc(CCNC(=O)CN(c2cc([N+](=O)[O-])ccc2OC)S(C)(=O)=O)cc1,4,6,3,2690,3.4,2,-20
COc1ccc(C(=O)C2CCCN(C(=O)c3cccc(N(C)C)c3)C2)cc1OC (configuration not stated),-3,-11,-1,5558,-4.4,-4,-11
CCN(CC)Cc1c(C(=O)NN=Cc2cccc(OCc3ccc(F)cc3)c2)nnn1-c1nonc1N,.,6,-4,.,2.9,-1,.
O=C(NCN1C(=O)C2C3C=CC(C3)C2C1=O)Nc1nccs1 (configuration not stated),-1,2,3,2295,5.5,12,-2
CCOC(=O)C1=C(C)NC(SCC(=O)Nc2nc(C)cs2)=C(C#N)C1c1cccs1 (configuration not stated),6,-5,16,.,2.3,-16,.
Cn1c(=O)n(C)c2cc([N+](=O)[O-])c(N3CCN(C(=O)c4ccccc4Cl)CC3)cc21,4,6,2,12579,16,-7,-17

# Complete entries, looked up by structure:
# CC(C)(C)Nc1nc(OCC#N)nc(N2CCCCC2)n1 as listed: BJeLR viability = -4; Mtb hypoxia inh = 12; Mtb hypoxia inh growth = 5; Bead autofluor = 2587; Sa RN4220 lethal = 1.8; ugtP null kill = -4; PrP UTR inh = 0
# CCN(CC)Cc1c(C(=O)NN=Cc2cccc(OCc3ccc(F)cc3)c2)nnn1-c1nonc1N as listed: BJeLR viability = .; Mtb hypoxia inh = 6; Mtb hypoxia inh growth = -4; Bead autofluor = .; Sa RN4220 lethal = 2.9; ugtP null kill = -1; PrP UTR inh = .

# Given with values under each structure: part of the list above
# Screens in order – BJeLR viability | Mtb hypoxia inh | Mtb hypoxia inh growth | Bead autofluor | Sa RN4220 lethal | ugtP null kill | PrP UTR inh
Cn1c(=O)n(C)c2cc([N+](=O)[O-])c(N3CCN(C(=O)c4ccccc4Cl)CC3)cc21
  4 | 6 | 2 | 12579 | 16 | -7 | -17
O=C(NCN1C(=O)C2C3C=CC(C3)C2C1=O)Nc1nccs1 (configuration not stated)
  -1 | 2 | 3 | 2295 | 5.5 | 12 | -2
CCCCNC(=O)c1cc2nc3c(c(C(F)(F)F)n2n1)CCc1ccccc1-3
  1 | 19 | 8 | 4701 | 1.3 | 1 | -24

# Screening data deposited in PubChem BioAssay by several laboratories.

# Random draw from the library. Share with any hit: about 3.9%.
